Bioassay records (PubChem BioAssay)
RE007 growth inh: less growth of the S. pombe RE007 Vpr strain; 0.21% of 360,000 active; Potency, µM (titrated, usually from 92.2 µM), without a hit: at the highest dose activity change, negative = less growth; AID 651644; S. pombe RE007 Vpr strain, BacTiter-Glo ATP luminescence, 24 h; control for the full effect not named in the record; active = well fitted falling curve with a large enough effect; inconclusive = small, poorly fitted or top-dose-only effect; inactive = no such curve, though single readings can be large or run the other way;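 note: nearly all actives have a fitted effect of over 50% in size; the assay follows cell death caused by Vpr and the record does not say whether a fall means rescue or toxicity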
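Fission yeast RE007 carrying one integrated HIV-1 vpr copy, seeded at OD 0.01 in PMG+AL medium with 23 nL pinned compound. Grown 24 h at 30 degrees; viability read by BacTiter-Glo luminescence after 5 min.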
2A StopGo: lowers the luciferase signal of an FMDV 2A StopGo reporter; human cells with a luciferase reporter of 2A StopGo recoding; control for the full effect not named in the record; 1.2% of 410,000 active; Potency, µM (highest dose often 57.9 µM), without a hit: at the highest dose signal change, negative = less light; active = well fitted falling curve with a large enough effect; inconclusive = small, poorly fitted or top-dose-only effect; inactive = no such curve, though single readings can be large or run the other way; tested in HEK293T cells; note: nearly all actives have a fitted effect of over 45% in size; luciferase light after 4 h
An asterisk follows results filed as active; ? = inconclusive; [ ] = another dose, or the depositor's remark. % is set by controls: 0 for no effect and ±100 for the full control effect; potency is the fitted concentration of half-maximal effect.

SMILES	RE007 growth inh	2A StopGo
CCCCCCCCN1C(=O)[C@H](CC(=O)NCCCCc2ccccc2)C[C@@]2(C(=O)OCC)CCCC=C12	-2%	?
COC(=O)C[C@@H]1C[C@H]2c3cc(NC(=O)Nc4ccccc4F)ccc3O[C@H]2[C@H](CO)O1	-3%	-12%
COCCNC(=O)C1CCCN(C(=O)c2ccc3c(c2)C(C)(C)CCC3(C)C)CC1 (configuration not stated)	3%	2%
CC1NC(=O)COC1c1ccccc1 (configuration not stated)	-19%	-1%
CCOC(=O)C1=C[C@@H](C(C)(C)C)N(S(=O)(=O)c2ccc(C)cc2)[C@H]1c1cccc2ccccc12	-3%	17%
CCc1ccc(C2CC3C(CN2S(=O)(=O)c2ccc(C)cc2)C(=O)CC(c2ccc(CC)cc2)N3S(=O)(=O)c2ccc(C)cc2)cc1 (configuration not stated)	9%	-16%
CC(C)(C)S(=O)(=O)N1C[C@H]2CC/C=C\C/C=C\2[C@@H]1CCO	-9%	?
C[C@H](CO)N1C[C@H](C)[C@@H](CN(C)C(=O)Cc2ccccc2)OCc2cnnn2CCCC1=O	-2%	1%
CC(C)C[C@H]1CNC(=S)N1CC1CCCN1C[C@H](Cc1ccccc1)N1C[C@H](Cc2ccc(O)cc2)N(CC2CCCCC2)C1=S (some centres not stated)	-5%	-21%
Cc1ccc2nc(-c3ccc(Cl)cc3)c(Cc3ccccn3)n2c1	?	-6%
CCCCCN1C(=O)c2cc(OC)ccc2[C@@]2(C(=O)OCC)Cc3cc(Cl)ccc3[C@@H]12	?	7.9µM*
NCC1CCC(C(=O)Oc2ccc(CCC(=O)O)cc2)CC1 (configuration not stated)	2%	-27%
COCc1cn(CC[C@@H]2CC[C@@H](NC(=O)Nc3ccc4c(c3)OCO4)[C@@H](CO)O2)nn1	-10%	-15%
Cc1ccc(Cc2c(-c3ccc(Cl)cc3)nc3c(Cl)cc(C(F)(F)F)cn23)cc1	-13%	-19%
COC(=O)C[C@H]1CC[C@@H](NC(=O)C2CC2)[C@@H](CO)O1	-2%	-11%
O=S(=O)(NN=C(c1ccccc1)c1ccccc1)c1ccccc1	-10%	-16%
O=C(NCc1ccc(Cl)c(Cl)c1)c1cc(C2CCCCN2C(=O)OCCF)on1 (configuration not stated)	6%[18.4 µM]	-14%
C=CCn1c2ccccc2c2nnc(SCC(=O)OC)nc21	-12%	-24%
O=C1NC[C@H](Cc2ccccc2)N(C[C@@H]2CCCN2C[C@H](Cc2ccc(O)cc2)N2C[C@H](Cc3ccc(O)cc3)N(CCc3ccccc3)C(=O)C2=O)C1=O	-2%	-3%
CCc1nc2ccc(C(=O)NCCN3CCCC3)cn2c1N(C)Cc1ccc(OC)cc1	-25%	2%
C[C@H]1CN([C@@H](C)CO)C(=O)CCCn2nncc2CO[C@H]1CN(C)S(=O)(=O)c1cccc(F)c1	-15%	0%
O=C(COC(=O)c1cncc(Br)c1)Nc1nnc(-c2ccccc2)o1	5%	-6%
CCCCCCn1cc(CN2CC(N3CCN(CCO)CC3)CS2(=O)=O)nn1 (configuration not stated)	-8%	-15%
C=CCCC(=O)N1C[C@H]2CCN(C)[C@H]2C[C@H]1c1ccc(Br)cc1	-4%	-17%
NCc1csc(Nc2ccc(C(=O)c3ccccc3)cc2)n1	-9%	-2%
SMILES	RE007 growth inh	2A StopGo
CC#CCN(Cc1ccco1)C(=O)C1CCC(=O)N(CCc2cccc(F)c2)C1 (configuration not stated)	-6%	-18%
Cc1ccc(-c2cc(C(=O)N/N=C/c3cccnc3)c3ccccc3n2)cc1C	-20%	7%
COCC(=O)N1Cc2ccccc2-n2nncc2C1	6%	-16%
Cc1ccc(-c2cnc(C(O)c3cc(Cl)cc(Cl)c3)[nH]2)cc1 (configuration not stated)	-5%	-3%
COCC(=O)N(C)C[C@H]1Oc2cc(C#Cc3cccnc3)ccc2S(=O)(=O)N([C@H](C)CO)C[C@H]1C	?	99%[activator]
CC(=O)Nc1ccc(CN(C)c2c(C)nc3ccc(C(=O)NCCCn4ccnc4)cn23)cc1	-11%	-6%
CC1(C(=O)O)CCN1C(=O)c1ccccc1F (configuration not stated)	-2%	5µM*
Cc1cc2nc(-c3ccc(F)cc3)c(Cc3cccc(Cl)c3)n2c(C)c1Br	-9%	-5%
COc1ccc(S(=O)(=O)NC(=O)C2(C)CCN2C(=O)Cc2ccccc2Cl)cc1OC (configuration not stated)	19%	-15%
CCCCn1nnnc1C(c1cc2ccccc2o1)N1CCN(c2cc(C)nc3ccccc23)CC1 (configuration not stated)	-16%	-17%
Cc1ccc(C(O)c2ncc(-c3ccccc3F)[nH]2)c(C)c1 (configuration not stated)	-20%	75%[activator]
O=S1(=O)N[C@H](Cc2ccccc2)COc2cc(N3CCC[C@H]3CO)ccc21	5%	13%
C[C@@H]1CN([C@@H](C)CO)C(=O)c2cc(Br)cnc2O[C@H]1CN(C)Cc1ccc(-c2ccccc2)cc1	-1%	-14%
CC(C)(C)OC(=O)N1CCC[C@@H]1C(=O)NCc1ccccc1Cl	4%	-14%
CCc1ccc2c(c1)NC(=O)C2(C)Cc1ccccc1 (configuration not stated)	-7%	-16%
COC(=O)[C@]12CCCCC=C1N(Cc1ccc(Cl)cc1Cl)C(=O)[C@H](CC(=O)N1CCC(c3ccccc3)CC1)C2	0%	-17%
CCCNC(=O)C[C@@H]1CC[C@@H]2[C@H](COC[C@H](O)CN2C(=O)c2cc(Cl)cc(Cl)c2)O1	6%	-13%
CCOC(=O)/C(=C(/C)N)C1CC(=O)NC1=O (configuration not stated)	-5%	?
O=C1NCCN1CCNc1nc(NCC2CC2)nc2cc(-c3ccccc3)sc12	?	-16%
CCOC(=O)C1CC2=C(CCCC2=O)NC1=O (configuration not stated)	-17%	-23%
CC1(C)CN(c2ccccc2)C(=O)[C@H]1CC(=O)Nc1ccccc1	2%	-8%
COc1ccc(CC(N)c2csc(NC(=O)Nc3cccc(C(F)(F)F)c3)n2)cc1 (configuration not stated)	-2%	-15%
CS(=O)(=O)c1ccc(C2=C(CNC(=O)c3ccncc3)[C@H]3CC[C@@H](C2)N3CCOc2ccccc2)cc1	-28%	-9%
ON=C(c1ccccc1)c1ccc2c3c(cccc13)CC2	?	?
O=C(N[C@@H]1CC[C@@H](CCNS(=O)(=O)c2ccc(Cl)cc2)O[C@@H]1CO)c1cccnc1	-6%	6%
SMILES	RE007 growth inh	2A StopGo
CN1CCN(c2ccc(-c3cccc4nccn34)cn2)CC1	?	11%
C=C1CCN([C@@H](CC(C)C)C(=O)NCc2ccc(OC)cc2)S(=O)(=O)c2ccccc21	5%	1%
CCc1nnc(SCc2ccc([N+](=O)[O-])cc2)nc1CC	5%	0%
COc1ccc(C(C)C)cc1S(=O)(=O)Nc1cccnc1	10%	87%[activator]
O=c1[nH][nH]c2c1[C@H](CCc1cccc(Cl)c1)O[C@H](C1CC1)C2	0%	-17%
O=C1NC[C@H](Cc2ccccc2)N(C[C@@H]2CCCN2C[C@H](Cc2ccc(O)cc2)N2C[C@H](Cc3ccccc3)N(CC3CCCCCC3)C(=O)C2=O)C1=O	3%	24%
CCC(C)CN1C(=O)CSCC1(C)C(=O)NCc1ccccc1 (configuration not stated)	8%	-5%
OC[C@@H]1CN(Cc2ccncc2)C[C@H](n2cnc3c(NC4CCCC4)ncnc32)O1	63%	-13%
CC(C)NC(=O)c1cc(C2CCCCN2C(=O)c2ccc(Cl)cc2)on1 (configuration not stated)	16%	-19%
CN1OC[C@@H]2CN(S(=O)(=O)c3cccc4ccccc34)[C@H](c3ccc(N4CCCCC4)cc3)C[C@@H]21	?	-13%
COC(=O)C1=C(c2cccc(OC)c2OC)C[C@@H]2CC[C@H]1N2C(=O)N1CCCC1	-10%	-10%
CCN(C)C1CN(Cc2cn(Cc3ccc(C(F)(F)F)cc3)nn2)S(=O)(=O)C1 (configuration not stated)	-1%	-15%
CC1=C(C(=O)N2CCOCC2)CC(CC(=O)NCc2cccc3ccccc23)C(=O)N1CCC1=CCCCC1 (configuration not stated)	7%	-12%
C[C@H]1CN([C@@H](C)CO)C(=O)CCCn2cc(nn2)CO[C@@H]1CN(C)S(=O)(=O)c1ccc2c(c1)OCCCO2	15%	-3%
O=C(Nc1ccc(F)cc1)C(CCc1ccccc1)N1CCN(CC(=O)N2CCCC2)CC1 (configuration not stated)	-9%	-23%
CC(=O)c1ccc(OC2(C)CCN(CCOc3ccc(C)cc3)C2)cc1 (configuration not stated)	-21%	-25%
Nc1nnnn1/N=C/c1ccccc1Cl	0%	14%
CC(=O)c1ccc(OCCCC(=O)Nc2ccc(Cl)c(S(=O)(=O)N3CCOCC3)c2)cc1	1%	16µM*
CCN1C(=O)[C@H]2[C@@H](c3ccccc3)N[C@]3(CCCN(Cc4ccccc4)C3=O)[C@H]2C1=O	14%	-24%
CN(C)C(=O)c1cccc(-c2cnc3c(NC=O)cc(-c4cccc(F)c4)cn23)c1	1%	0%
COc1cccc(CNC(=O)[C@@H]2CCCN2C(=O)[C@H]2CCCCN2C(=O)c2cccc(Cl)c2)c1	12%	-17%
O=c1[nH]c2cc([N+](=O)[O-])ccc2c2cc(Br)ccc12	-6%	-12%
CN(Cc1ccccc1)C(=O)c1ccc(Nc2nc(C(N)Cc3ccc(C(F)(F)F)cc3)cs2)nc1 (configuration not stated)	36%	10%
CC(=O)Nc1cc(-c2ccccc2Cl)cn2c(-c3ccc(S(C)(=O)=O)cc3)cnc12	-14%[18.4 µM]	-10%
O=C1CCN(CC2CCCCC2)C=C1C(=O)c1ccccc1	-11%	0%

Of the compounds above, five contain bromine.
SMILES	RE007 growth inh	2A StopGo
O=C(COC(=O)c1cncc(Br)c1)Nc1nnc(-c2ccccc2)o1	5%	-6%
C=CCCC(=O)N1C[C@H]2CCN(C)[C@H]2C[C@H]1c1ccc(Br)cc1	-4%	-17%
Cc1cc2nc(-c3ccc(F)cc3)c(Cc3cccc(Cl)c3)n2c(C)c1Br	-9%	-5%
C[C@@H]1CN([C@@H](C)CO)C(=O)c2cc(Br)cnc2O[C@H]1CN(C)Cc1ccc(-c2ccccc2)cc1	-1%	-14%
O=c1[nH]c2cc([N+](=O)[O-])ccc2c2cc(Br)ccc12	-6%	-12%

As a working copy, part of the list above:
SMILES	RE007 growth inh	2A StopGo
C=C1CCN([C@@H](CC(C)C)C(=O)NCc2ccc(OC)cc2)S(=O)(=O)c2ccccc21	5%	1%
CCc1nnc(SCc2ccc([N+](=O)[O-])cc2)nc1CC	5%	0%
COc1ccc(C(C)C)cc1S(=O)(=O)Nc1cccnc1	10%	87%[activator]

Further results follow:
SMILES	RE007 growth inh	2A StopGo
C[C@H]1CN([C@@H](C)CO)C(=O)CCCn2cc(nn2)CO[C@@H]1CN(C)C(=O)C1CCCCC1	1%	-4%
COc1cccc(N2[C@@H](CC(=O)O)c3ccccc3S2(=O)=O)c1	3%	-20%
O=C(NCc1nc2ccccc2[nH]1)C1=C[C@H](c2ccc(C(F)(F)F)cc2)C[C@H](OCCCCO)O1	-11%	-20%
CCOc1ccc2ccccc2c1CNCCCN1CCOCC1	-9%	-10%
O=C(NCc1ccccc1)c1cc(C2CCCN(S(=O)(=O)c3cccs3)C2)on1 (configuration not stated)	1%	-6%
CCOC(=O)C1=CCN(S(=O)(=O)c2ccc(Br)cc2)C1c1cccc(C)c1 (configuration not stated)	-1%	-29%
COc1cc(NC(=O)CCn2c(=S)[nH]c3ccccc3c2=O)cc(OC)c1OC	-15%	-21%
CCCc1c(-c2cccc(Cl)c2)ncn1Cc1cccc(-c2ccccc2)c1	14%	-27%
CCCCNC(=O)C[C@@H]1C[C@@]2(C(=O)OCC)CCC=C2N(Cc2ccco2)C1=O	2%	4%
COc1ccc(C(O)c2ncc(-c3cccc(F)c3)[nH]2)cc1F (configuration not stated)	-9%[18.4 µM]	53%[activator]
COc1ccc(-c2nc3ccc(Br)cn3c2Cc2ccc(C)cc2)cc1OC	-7%	15%
O=C(NCc1ccccc1Cl)c1csc([C@@H]2O[C@H](CO)[C@@H](O)[C@H]2O)n1	4%	-18%
CC(C)OC(=O)N(C)C[C@H]1OCc2cnnn2CCCC(=O)N([C@H](C)CO)C[C@@H]1C	13%	-11%
C[C@@H]1CN([C@@H](C)CO)C(=O)CCCn2cc(nn2)CO[C@H]1CN(C)S(=O)(=O)c1ccc(Oc2ccccc2)nc1	-4%	-21%
Cc1ccc(S(=O)(=O)N2C[C@H]3C(=O)C[C@@H](c4ccccc4)N(S(=O)(=O)c4ccc(C)cc4)[C@H]3C[C@H]2c2ccccc2F)cc1	-2%	-3%
NC(CO)c1csc(NC(=O)Nc2cccc(Cl)c2)n1 (configuration not stated)	4%[18.4 µM]	7%
COc1ccc(C(C)(O)c2nc(-c3ccoc3)cs2)cc1 (configuration not stated)	15%	-13%
O=C(NCCc1ccccc1F)c1[nH]c(C(F)(F)F)nc1-c1ccccc1	-4%	0%
OC(c1ccc(F)cc1)c1nc(-c2cccc(F)c2)cs1 (configuration not stated)	-9%	37%[activator]
CCOC(=O)c1ccc(NC(=O)Nc2nc3ccccc3s2)cc1	3%	0%
O=C(Nc1ccccc1Cl)Nc1ccnn1C1CCN(C(=O)C2CCOC2)CC1 (configuration not stated)	-2%	-5%
O=C(C1=NOC2(C1)C(=O)Nc1ccccc12)N1CCCC1 (configuration not stated)	-4%	-23%
O=C(Nc1nc2ccc(Cl)cc2s1)C1CC1	-12%	27%

The list is partial (hit frequency here may not be typical).
